gsp antag = qHTS for Antagonists of gsp, the Etiologic Mutation Responsible for Fibrous Dysplasia/McCune-Albright Syndrome: qHTS; 340,000 tested, 0.4% active; gsp-mutant cells, cAMP HTRF, 30 min; control for the full effect not named in the record; Potency, µM (highest dose often 76.9 µM), for inactives: at the top dose activity change, negative = inhibition, actives largely listed as inhibitors; active = falling curve of any shape with a large fitted effect; inconclusive = falling curve, mostly with a smaller effect; inactive = flat or rising curve; cell line not stated here;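 further: intracellular cAMP measured with PDE inhibitor Ro 20-1724 present during compound exposure; potency means the concentration at half of the fitted maximal effect; on the % scale 0 is the no-effect control and ±100 the full control effect; nearly all actives have a fitted effect of over 65% in size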
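G418-selected cells were plated in DMEM/10% FBS for 16-24 h at 37C, then treated with compounds plus the PDE inhibitor […] (300 uM solution added) for 30 min at 37C. Intracellular cAMP was measured by HTRF after 30 min lysis at room temperature.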
TRPML1 ag = qHTS for Agonists of the Human Mucolipin Transient Receptor Potential 1 (TRPML1); Mucolipin-1 (Homo sapiens), Q9GZU1; TRPML1-expressing cells, Ca2+ dye fluorescence, FDSS; host cell line not named in the record; reference of the full effect not given here; activation, % (no concentration beside the values); 410,000 tested, 0.12% active; in the data active = activation above about 50%; inconclusive = about 30% to 50%; inactive = below about 30%; further: 0% is about no effect; the text of the record puts the active cut at 80%
Target sequence (Q9GZU1 whole entry, looked up): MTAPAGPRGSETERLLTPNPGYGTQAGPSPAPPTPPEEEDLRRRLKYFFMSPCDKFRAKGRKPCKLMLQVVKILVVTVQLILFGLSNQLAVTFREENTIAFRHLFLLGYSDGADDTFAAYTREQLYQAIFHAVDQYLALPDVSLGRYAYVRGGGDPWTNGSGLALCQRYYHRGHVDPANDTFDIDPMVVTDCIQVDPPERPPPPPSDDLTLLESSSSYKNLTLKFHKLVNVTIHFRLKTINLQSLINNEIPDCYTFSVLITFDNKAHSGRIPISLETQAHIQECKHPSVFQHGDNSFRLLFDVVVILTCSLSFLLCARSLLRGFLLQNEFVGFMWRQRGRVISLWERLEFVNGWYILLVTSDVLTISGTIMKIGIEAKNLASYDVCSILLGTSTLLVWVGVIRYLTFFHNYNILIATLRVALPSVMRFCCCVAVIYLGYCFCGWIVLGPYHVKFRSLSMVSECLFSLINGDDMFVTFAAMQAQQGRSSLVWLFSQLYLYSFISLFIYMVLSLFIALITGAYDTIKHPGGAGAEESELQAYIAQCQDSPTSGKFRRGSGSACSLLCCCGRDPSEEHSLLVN
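Calcium fluorescence on an FDSS kinetic reader gave the read-out. Tet-induced TRPML1-DL cells were plated overnight, dye-loaded (Ca8 with quencher, 45-90 min, room temperature, dark), then read 110 s after compound addition, and again 110 s after 4uM final 54-4 (EC80).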
ClpP mod = qHTS Assay for Activators of ClpP; AID 651965, 2013; ATP-dependent Clp protease proteolytic subunit (Bacillus subtilis (strain 168)), P80244; purified B. subtilis ClpP, FRET peptide cleavage, 20 min; 340,000 tested, 1.9% active; Potency, µM (highest dose often 57.5 µM), inactives show at the highest dose activity change, negative = active; active = well fitted falling curve with a large enough effect; inconclusive = small, poorly fitted or top-dose-only effect; inactive = no such curve, though single readings can be large or run the other way; further: potency means the concentration at half of the fitted maximal effect; the source files actives as falling curves though it sought activators and does not explain the sign; nearly all actives have a fitted effect of over 65% in size; many hits overshoot -100%
Target sequence (P80244 whole entry, looked up): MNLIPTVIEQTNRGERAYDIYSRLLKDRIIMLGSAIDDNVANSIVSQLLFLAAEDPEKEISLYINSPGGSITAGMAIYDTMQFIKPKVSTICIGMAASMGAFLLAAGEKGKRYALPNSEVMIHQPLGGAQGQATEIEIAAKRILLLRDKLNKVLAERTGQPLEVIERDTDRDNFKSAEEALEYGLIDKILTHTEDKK
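ClpP 10 microg/mL final, pH 8 Tris/KCl buffer with BSA, glycerol, Tween-20; compound pinned in; FRET-FV substrate; RT 20 min; Ex320/Em430; ΔFRET vs ADEP 5.8 microM, DMSO, no enzyme.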
gsp ag = qHTS for Agonist of gsp, the Etiologic Mutation Responsible for Fibrous Dysplasia/McCune-Albright Syndrome: qHTS; gsp mutant cells, cAMP HTRF, 30 min; control for the full effect not named in the record; Potency, µM (titrated, usually from 76.9 µM), inactives show top-dose activation (cAMP increase), usual class: activators; 340,000 tested, 0.13% active; AID 624287, 2012; active = well fitted activation curve with a large enough effect; inconclusive = small, poorly fitted or top-dose-only effect, or another doubt; inactive = no such curve, though single readings can be large or run the other way; cell line not stated here;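 further: phosphodiesterase inhibitor Ro 20-1724 added with compounds to block cAMP breakdown; potency means the concentration at half of the fitted maximal effect; nearly all actives have a fitted effect of over 60% in size; about a fifth of the inactives were tested at one dose only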
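Cells stably selected in G418 were plated at 2000/well, grown 16-24 hr, then given compounds in DMSO with the PDE inhibitor […] (300 uM solution added) for 30 min at 37C; cAMP was read by HTRF.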
TRPML1 inh = qHTS for Inhibitors of the Human Mucolipin Transient Receptor Potential 1 (TRPML1); Mucolipin-1 (Homo sapiens), Q9GZU1; TRPML1-inducible cells, Ca2+ dye fluorescence, FDSS; active compounds read low; inhibition of EC80 agonist-evoked calcium signal; activity change, negative = inhibition, % (test concentration not listed); 390,000 tested, 0.02% active; AID 624415, 2012; in the data active means activity change below about -50%; inconclusive means about -30% to -50%; inactive means above about -30%;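 further: stimulus is agonist 54-4 at its EC80 concentration; on the % scale 0 is the no-effect control and ±100 the full control effect; compound concentration not given in the record; the text of the record puts the active cut at -80%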
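Tet-induced TRPML1-DL cells loaded with Ca8 no-wash calcium dye were read kinetically on FDSS. Compound addition was followed by EC80 agonist 54-4 (4 uM final); inhibition was read over 110 s.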
Menin-MLL FL inh = qHTS Assay for Inhibitors Targeting the Menin-MLL Interaction in MLL Related Leukemias: Competition With Fluorescein Labeled MLL-derived Peptide | Fluorescence polarization, fluorescein-MLL peptide displacement from menin | FP activity change, % at 61.4 µM | 290,000 tested, under 10 active; inconclusive = falling polarisation curve, or a change in total fluorescence; inactive = total fluorescence flat and polarisation flat or rising; no compound was filed as active; the % refers to the polarisation; negative = inhibition;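 further: % of control where 0% means no effect; inhibitors lower the polarisation; unlabelled MLL peptide was the positive control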
* hit, by the source's call; ? = inconclusive; nt = no result given; & = joins results of further samples; [ ] = another dose, or the depositor's remark. Rows were taken by chance. About 2.1% of those tested had a hit in this group.

SMILES | gsp antag | TRPML1 ag | ClpP mod | gsp ag | TRPML1 inh | Menin-MLL FL inh
COc1cccc(-n2c(=O)c3sc4ccccc4c3n(CC(=O)Nc3cccc(Cl)c3)c2=O)c1 | nt | 0.8 | 3.8% | nt | -17 | nt
Cc1ccc(S(=O)(=O)N2CCN(CN3C(=O)CC4(CCCC4)C3=O)CC2)cc1 | 9% | -0.3 | 1.3% | 11%[15.4 µM] | 13 | nt
Cc1ccc(CNC(=O)c2nc(-c3ccc(Cl)cc3)n3c2CCCCC3)cc1 | nt | -0.4 | -6.8% | nt | 11 | nt
COc1ccc(OC)c(C2NC(=O)c3sc(=S)n(-c4ccccc4)c3N2)c1 (configuration not stated) | -18% | -0.6 | 0.3% | -4% | -3 | ?
CCS(=O)(=O)N1Cc2ccccc2CC1C(=O)NCc1cccc(OC)c1 (configuration not stated) | 14% | 1.5 | 1.2% | -11% | 6 | nt
Cc1cc(N2CCN(c3cccc(C)c3C)CC2)n2cnnc2n1 | nt | 0.0 | -3.0% | nt | 9 | nt
N#Cc1ccc(Sc2ccccn2)c([N+](=O)[O-])c1 | -5% | -0.7 | -0.5% | 18%[15.4 µM] | 12 | 2.7
Cc1nn(-c2ccccc2)c(C)c1/C=N/O | 7% | -0.8 | -0.8% | 10% | -10 | 6.1
COc1cc(OC)cc(C(=O)NC2CCCN(Cc3ccc(Cl)cc3)C2)c1 (configuration not stated) | 5% | nt | -0.7% | -17% | nt | -1.2
Cc1c(NC(=O)C2Cc3ccccc3CN2C(=O)c2ccco2)c(=O)n(-c2ccccc2)n1C (configuration not stated) | 8% | -0.8 | 0.8% | 1% | 23 | 4.5
CCN(CCNC(=O)c1ccc2nc(-c3ccccc3NC(C)=O)c(=O)[nH]c2c1)c1ccccc1 | -7% | -0.9 | 1.2% | 1% | 24 | -2.0
Cc1cc(C)nc(SCC(=O)Nc2ccc(S(=O)(=O)N3CCCCC3)cc2)n1 | ? | 1.1 | -2.3% | 8% | 46 | 5.7
NS(=O)(=O)c1ccc(NC(=S)Nc2ccn(Cc3cccc4ccccc34)n2)cc1 | -14% | -0.2 | nt | -3%[15.4 µM] | 3 | -1.1
O=C(NCCC1=CCCCC1)C1CCCN(S(=O)(=O)c2cccc3cccnc23)C1 (configuration not stated) | 0% | 2.8 | 2.5% | -2% | -9 | 0.5
CCc1ccc(-c2ccc(C(=O)O)cc2)nc1 | ? | 2.7 | -3.8% | -2% | 8 | -5.0
COC(=O)CCCCNC(=O)Nc1ccccc1 | 7% | 0.0 | nt | -3% | 9 | -8.0
Cc1onc(-c2ccccc2)c1C(=O)OCC(=O)N1CCN(c2ccccc2)CC1 | -9% | 3.3 | nt | -17%[15.4 µM] | -1 | nt
Cc1cn([C@@H](CCCCNC(=O)OC(C)(C)C)C(=O)NCCCCCCCCCCC(=O)N2CCN(C(=O)OC(C)(C)C)CC2)nn1 | 28µM* | -0.2 | 1.1% | nt | -10 | nt
CC(=O)Nc1ccc(/C(C)=N/Nc2nc(Nc3ccccc3)nc(N3CCOCC3)n2)cc1 | nt | -0.2 | nt | 16%[15.4 µM] | 46 | -2.0
CC(C)N(Cc1nccn1C)C(=O)c1ccc(OC2CCN(C(=O)C3CC3)CC2)cc1 | 2% | 0.8 | -0.8% | 27% | -9 | 2.3
Nc1nonc1-c1noc(-c2ccccc2)n1 | -1% | 0.8 | -0.3% | -5% | -11 | -1.2
CCNc1nc(C)cc(COC)c1C#N | 12% | -0.4 | 67% | -44%[inhibitor] | 2 | 0.5
O=C(Nc1cccc(C(F)(F)F)c1)c1n[nH]c(Cn2cncn2)n1 | -3% | 0.1 | -1.4% | 18% | -2 | 2.1
COc1ccc(CC(=O)Nc2cccc(S(=O)(=O)N3CCOCC3)c2)cc1OC | -9% | 1.5 | 1.0% | 1% | -8 | nt
CCc1ccc(NC(=O)CSc2nc(O)cc(=O)n2C2CCCC2)cc1 | nt | 0.6 | nt | 23%[15.4 µM] | -1 | nt

More results:
SMILES | gsp antag | TRPML1 ag | ClpP mod | gsp ag | TRPML1 inh | Menin-MLL FL inh
O=C(NCc1cccs1)c1ccncc1 | 5% | -0.5 | -0.5% | -8% | -3 | 0.3
C=CCN(Cc1ccc(OC)c(OC)c1)C(=O)N1CCOCC1 | 8% | -0.6 | nt | -24% | 0 | 5.9
Cc1cccc(OC(=O)c2cncc(Br)c2)c1 | 2% | 5.4 | 0.5% | ? | 14 | -3.4
CC(C)c1ccc(S(=O)(=O)c2nnn3c2nc(N2CCCCC2)c2ccccc23)cc1 | -7% | -0.3 | ? | -23% | 38 | 1.1
COc1ccc(NC(=O)c2cccc(Oc3ccccc3)c2)cn1 | -7% | 0.3 | nt | 2%[15.4 µM] | 1 | -7.1
O=C(NCc1ccccc1)c1nc(S(=O)(=O)Cc2ccccc2)ncc1Cl | -9% | 1.5&-0.2 | 3.0%&4.4% | 5% | -1&4 | nt
CC1(c2ccccc2Cl)NC(=O)N(CC(=O)Nc2ccc(N3CCOCC3)cc2)C1=O (configuration not stated) | 7% | 3.8 | 0.2% | ? | -4 | nt
COc1cccc(N2CC(NC(=O)CCCc3ccccc3)CC2=O)c1 (configuration not stated) | nt | -0.9 | 0.3% | nt | -12 | nt
CC(C)c1nn2c(=O)cc(COC(=O)c3ccc(NC(=O)CCc4ccccc4)cc3)nc2s1 | nt | 1.9 | -8.0% | nt | 9 | nt
COC(=O)c1ccc(NC(=O)c2ccc3nccnc3c2)cc1 | -8% | 0.1 | nt | -1% | -12 | 1.3
COc1ccc(CNC(=O)CSc2ncc3c(n2)-c2ccc(Cl)cc2N(Cc2ccccc2)S3(=O)=O)cc1 | nt | -0.5 | 4.0% | nt | 7 | nt
Cc1ccc(CNC(=O)C2(C(F)(F)F)C/C(=C\CCO)CCCO2)o1 (configuration not stated) | nt | 1.2 | nt | nt | -4 | -2.2
CC(C)CCNC(=O)CCn1c(=S)oc2ccccc21 | 1% | 0.2 | nt | -2% | -7 | -2.3
Cc1ccc(C2CC(c3ccco3)n3nc(N)nc3N2)cc1 (configuration not stated) | 5% | 0.7 | -16% | 8% | 7 | 3.2
Cc1ccc(CSc2nncn3c2cc2sccc23)cc1 | nt | -0.2 | 0.8% | nt | 17 | nt
Cc1[nH]nc2c1C(c1cccnc1)N(c1ccc(Br)cc1)C2=O (configuration not stated) | -33% | -0.5 | -2.4% | ? | -3 | -0.3
O=c1cccc(-c2ccccc2)[nH]1 | 14% | 1.8 | -0.5% | 11% | -8 | -0.8
CCOc1ncccc1C(=O)OCC(=O)Nc1ccc(-c2nc3ccc(C)cc3s2)cc1 | 3% | -0.3 | 3.5µM* | 30% | 16 | 1.9
O=c1c(-c2cc(-c3ccccc3)nc3c2COc2ccc(Cl)cc2-3)coc2ccc(F)cc12 | nt | 0.5 | -1.4% | nt | 10 | nt
COc1ccccc1N1CCN(C(=O)C(C)NC(=O)c2cccc([N+](=O)[O-])c2)CC1 (configuration not stated) | nt | -0.3 | nt | -10%[15.4 µM] | -23 | -4.5
CCCCCCNC(=O)O[C@H]1Cn2c(=O)ccc(=O)n2[C@@H]2CN(S(=O)(=O)c3ccc(C)cc3)C[C@]12O | nt | -0.1 | -2.1% | 6% | -8 | nt
COc1cccc(CN2CC(C(=O)NCCN3CCOCC3)CCC2=O)c1 (configuration not stated) | 17% | 0.5 | 2.3% | ? | 33 | nt
O=C1CC(c2ccc(F)cc2)Cc2nc(N3CCN(c4ccccc4)CC3)ncc21 (configuration not stated) | -5% | 0.1 | -6.3% | ? | -8 | -1.4
COc1cc(OC)c(NC(=O)Cn2ncn3c(cc4cc(C)ccc43)c2=O)cc1Cl | nt | 0.0 | -7.3% | nt | -15 | nt
CCC1=C(OC(=O)N(CC)CC)N2C(=O)OC(=NCCOC)[C@]2(Cc2ccccc2)[C@H]2C1=CC[C@H]1C(=O)N(C)C(=O)[C@H]12 | -7% | -0.5 | -3.6% | nt | -10 | -0.1&2.5

Full records, quoted from the list. Order of screens: gsp antag | TRPML1 ag | ClpP mod | gsp ag | TRPML1 inh | Menin-MLL FL inh
`CC(C)CCNC(=O)CCn1c(=S)oc2ccccc21` in the list: 1% | 0.2 | nt | -2% | -7 | -2.3
`O=C(NCc1ccccc1)c1nc(S(=O)(=O)Cc2ccccc2)ncc1Cl` in the list: -9% | 1.5&-0.2 | 3.0%&4.4% | 5% | -1&4 | nt

Next entries follow:
SMILES | gsp antag | TRPML1 ag | ClpP mod | gsp ag | TRPML1 inh | Menin-MLL FL inh
COc1ccc(CNC(=O)CCS(=O)(=O)c2cc(Br)cc3c2N(C(C)=O)C(C)C3)cc1 (configuration not stated) | nt | -0.8 | -1.0% | nt | -6 | nt
CCOC(=O)N1CCN(C(=O)c2ccc(-n3c(C)ccc3C)cc2)CC1 | -2% | -0.5 | 1.2% | 15% | 45 | 0.6
CN(C1CCCCC1)S(=O)(=O)Cc1ccccc1 | 2% | 0.4 | -2.7% | 0% | 11 | 5.6
COC(=O)c1cccc(C23CC4(C2)[C@H](CN(C)[C@@H]4c2ccccc2)C3c2ccccc2)c1 (some centres not stated) | -3% | 0.2 | -1.8% | nt | -11 | 1.3&5.7
COc1ccccc1N(CC(=O)NC1CCCCC1)C(=O)Cn1nnc(-c2ccc(C)o2)n1 | -24% | -0.1 | nt | 8%[15.4 µM] | -12 | -0.2
O=C(Cn1nc(-c2ccco2)ccc1=O)Nc1cc(Cl)ccc1Cl | 3% | -1.2 | ? | ? | -21 | 6.4
N#CC1C(=O)c2ccccc2C1c1ccccc1 (configuration not stated) | 15% | 5.4 | 274% | 17% | -4 | nt
c1cnn(-c2nc(N3CCOCC3)nc(N3CCOCC3)n2)c1 | -15% | -0.5 | -7.9% | 1% | -2 | 0.2
COc1ccc(C(=O)/C=C/Nc2cc(C)on2)c(OC)c1 | -11% | -1.0 | -14% | -5% | 0 | -1.5
COc1cccc(/C=C2\SC(=O)N(CCC(=O)N3CCC(C(=O)O)CC3)C2=O)c1 | -9% | -0.4 | -3.4% | ? | -2 | nt

Screening results: PubChem BioAssay, National Center for Advancing Translational Sciences (NCATS)
